# Rce1 inh: inhibitors of yeast Ras-converting enzyme | Q03530 | yeast membranes, quenched prenylated peptide cleavage fluorescence | calls only | hit rate 0.27% among 290,000 | AID 2563;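 active = fall in fluorescence gain of 50% or more versus controls, with final raw signal at or below 3038400; inconclusive = same 50% fall but final raw signal above 3038400; inactive = fall in fluorescence gain under 50%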;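 note: plate controls were neutral control wells for no effect and wells lacking membranes for full effect; tested at 10 µM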
# Env fusion inh: inhibitors of HIV Env-mediated cell fusion; HeLa-JRFL Env/CEM21 cell fusion, luciferase; hit rate 1.1% among 360,000; inhibition, % at 12.3 µM;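 active = mean replicate inhibition score of at least 50 and every replicate individually at or above 50; inconclusive = only one of the two criteria met; inactive = mean below 50 and not all replicates reaching 50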;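 note: 0% = plate neutral controls and 100% = maraviroc near 300 nM; one replicate is shown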
# PABP FP inh: blocks human PABP binding to poly(A) RNA; hit rate 1% among 290,000; P11940; inhibition, % at 35 µM; AID 2014; fluorescence polarization;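 active = 50% or more with normal probe brightness, or confirmed in later tests; inconclusive = above 50% with abnormal brightness, or retests that disagree; inactive = below 50% or failed in later tests; about a fifth of its hits are not listed in these tables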;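 note: calls also rest on retests at 20 µM and on dose response follow-up; controls were probe without protein and protein plus probe with vehicle; some compounds called inactive have numbers as strong as hits; many hits fall short of the cut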
# Target sequence (P11940 whole entry, looked up): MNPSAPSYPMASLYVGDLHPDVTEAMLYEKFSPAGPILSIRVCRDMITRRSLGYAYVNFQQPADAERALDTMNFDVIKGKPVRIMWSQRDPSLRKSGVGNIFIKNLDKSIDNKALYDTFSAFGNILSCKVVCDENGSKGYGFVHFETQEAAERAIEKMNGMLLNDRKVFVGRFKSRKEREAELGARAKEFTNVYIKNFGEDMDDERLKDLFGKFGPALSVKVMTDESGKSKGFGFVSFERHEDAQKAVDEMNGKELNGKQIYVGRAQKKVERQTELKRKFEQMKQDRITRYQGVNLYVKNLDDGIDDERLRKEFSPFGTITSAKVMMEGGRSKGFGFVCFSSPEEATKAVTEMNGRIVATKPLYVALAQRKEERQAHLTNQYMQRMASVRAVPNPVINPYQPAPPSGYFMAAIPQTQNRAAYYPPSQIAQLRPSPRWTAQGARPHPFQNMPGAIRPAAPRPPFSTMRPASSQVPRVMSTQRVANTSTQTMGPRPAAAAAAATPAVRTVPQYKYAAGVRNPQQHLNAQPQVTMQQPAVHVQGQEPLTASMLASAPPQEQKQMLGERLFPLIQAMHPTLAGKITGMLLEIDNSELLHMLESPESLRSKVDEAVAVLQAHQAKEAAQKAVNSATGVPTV
# eIF4H inh: inhibitors of RNA binding by human eIF4H | inhibition, % at 35 µM | Q15056 | AID 2012 | eIF4H fluorescence polarization binding assay | hit rate 0.94% among 290,000;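 active = 50% or more with normal probe brightness, or confirmed in later tests; inconclusive = above 50% with abnormal brightness, or retests that disagree; inactive = below 50% or failed in later tests; about a fifth of its hits are not listed in these tables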;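 note: calls also rest on retests at 20 µM and on dose response follow-up; 0% = protein and probe with vehicle and 100% = probe without protein; strong numbers were not always called active; many hits fall short of the cut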
# MT1-MMP act inh: inhibitors of human MT1-MMP activation | P50281 | HT1080 RFP-PRO-GFP cells, GFP/RFP ratio fluorescence, overnight; percent of plate control window, DMSO zero | GFP/RFP ratio change, % at 20 µM | hit rate 0.061% among 360,000;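 active = GFP/RFP ratio change of at least 30% with cell ATP level not reduced by more than half and red fluorescence within 50% of control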; note: strong numbers were not always called active
#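 Material: RFP-PRO-GFP reporter HT1080 cells. Dosing: single-point 20 µM compound, 1% DMSO. Controls: DMSO and RFP-L50D-GFP cell wells. Timing: cells overnight before dosing, compound overnight, 37 °C, 5% CO2. Measure: GFP/RFP fluorescence ratio.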
# UUG fidelity: modulators of start codon recognition fidelity in yeast. S. cerevisiae UUG-firefly luciferase reporter, luminescence/redox ratio. activity score, % at 18.7 µM. hit rate 0.13% among 350,000. AID 602363;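 active = replicate mean at a twofold rise or more, about +100% in these data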;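 note: firefly luciferase made from a UUG start codon reports start codon fidelity; reporter light over untreated wells divided by growth signal over untreated wells; some hits fall short of that in this replicate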
# CSC inhib: cancer stem cell inhibition | hit rate 1.1% among 300,000 | inhibition, % at 7.5 µM | cancer stem cell-like cells viability, luminescence;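 active = mean at 75% or more and at least half the replicates too; inconclusive = mean and replicates disagree; tested in HMLE shEcad cells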;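 note: 0% = median of negative and 100% = median of positive control wells; the first replicate is given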
# MT1-MMP act inh RFP: recorded beside MT1-MMP act inh, whose call it bears; RFP signal change, %; measured here: RFP expression control read;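 0 = vehicle wells; hits needed this value within 50% of zero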
# The depositor's hits bear a star; i = inactive; ? = inconclusive; / = no result given.
SMILES,Rce1 inh,Env fusion inh,PABP FP inh,eIF4H inh,MT1-MMP act inh,MT1-MMP act inh RFP,UUG fidelity,CSC inhib
CC1(OC(=O)C2CCCC2)C(=O)C=C2C=C(c3ccsc3)N(Cc3ccccc3)C=C2C1=O (stereo unspecified),i,-33,22,33,4,2,-2,11
COc1ccc2cc1Oc1ccc(cc1)C[C@H]1c3cc(c(OC)cc3CCN1C)Oc1c(O)c(OC)cc3c1[C@H](C2)N(C)CC3,i,/,4,-10,/,/,/,30
COC(=O)[C@@]1(Cc2ccccc2)[C@H]2C(=O)N(Cc3ccccc3)C(=O)[C@H]2[C@H]2CN=C(SCc3ccccc3)N21,/,76*,/,/,-9,-16,8,/
CNC(=O)c1c(NC(=O)c2cccc(N3C(=O)CCC3=O)c2)sc2c1CCCC2,i,12,-3,-3,3,2,13,-4
Cc1ccc(-c2nc3ncccc3o2)cc1NC(=O)c1cccnc1,i,0,0,6,0,-1,/,2
O=C(NCCc1nc2ccccc2[nH]1)c1cccc(Br)c1,i,-21,-1,11,0,1,1,-11
Cc1ccc(S(=O)(=O)N(C)C)cc1NC(=O)c1cc(-c2ccco2)nc2ccccc12,i,/,3,13,-6,4,-19,9
CCCCN(C)C(=O)c1nc2ccccn2c1CN1CCSCC1,i,8,-1,1,0,2,-15,6
N#CCCN(C(=O)CSc1ccc2c(c1)OCCO2)c1ccccc1,i,-126,-6,9,9,-2,-15,-3
CCOC(=O)N1CCN(C(=O)c2oc(=O)c3ccccc3c2-c2ccc(C)cc2)CC1,i,8,-3,-6,-4,0,-17,-7
Cc1cc2[nH]c(=O)c(=O)[nH]c2cc1S(=O)(=O)N1CCC(C)CC1,i,4,6,-9,-1,3,-10,/
CCN1CCN(C(=O)C2c3cc(OC)c(OC)cc3C(=O)N(C)C2c2ccc(SC)cc2)CC1 (stereo unspecified),i,46,-4,4,-2,8,-10,23
Cc1ccccc1NC(=O)C1CCN(C2=NS(=O)(=O)c3ccccc32)CC1,i,-8,-7,-7,-1,4,-20,-9
O=C(CSc1ccc(Cl)cc1)OCc1nnc(-c2ccccc2)o1,i,/,-1,4,5,3,-11,-14
CC(C)C(NC(=O)c1ccc(F)cc1)C(=O)Nc1cccnc1 (stereo unspecified),i,5,0,0,-1,6,/,-5
CCOC(=O)c1nnc(-c2cccs2)nc1Oc1ccc(Cl)cc1,i,-5,4,-7,-2,-1,-26,-8
COc1cc(/C=N/Nc2ccc(Cl)c(C(=O)O)c2)ccc1OC(=O)c1ccccc1F,i,22,10,-16,0,1,-8,5
CC(C)C(NC(=O)/C(=C\c1ccco1)NC(=O)c1ccco1)C(=O)O (stereo unspecified),i,2,24,48,-6,0,7,-15
O=C(NC(Cc1ccccc1)C(=O)O)/C(=C/c1cccc([N+](=O)[O-])c1)NC(=O)c1ccco1 (stereo unspecified),i,-10,-1,2,0,-1,-2,-16
O=[N+]([O-])c1ccc(C2CCCC/C2=N/OCc2ccc(F)cc2)c([N+](=O)[O-])c1 (stereo unspecified),i,65*,1,0,-4,-7,-6,15
O=C(NC1CC(=O)N(c2ccc(F)cc2)C1)C(=O)c1c[nH]c2ccccc12 (stereo unspecified),i,21,/,/,0,0,-1,-6
CCN1CCN(c2c(Cl)cccc2NC(=O)c2ccc3c(c2)OCCO3)CC1,i,-28,-5,-3,-3,-3,-2,7
O=C(Nc1ccc(S(=O)(=O)NCc2ccco2)cc1)c1ccncc1,i,/,1,-4,2,-10,-22,-11
NC1=NN=C(N2N=C(c3ccccc3)CC2(O)C(F)(F)F)n2ncnc2C1 (stereo unspecified),/,4,-5,23,5,1,/,-16
Cc1cc(-c2cccs2)n[nH]1,i,/,5,2,-5,-4,-6,-13
# Additional records.
SMILES,Rce1 inh,Env fusion inh,PABP FP inh,eIF4H inh,MT1-MMP act inh,MT1-MMP act inh RFP,UUG fidelity,CSC inhib
COc1ccc(/C(C)=N\NS(C)(=O)=O)c(OC)c1,i,-1,-5,-4,-1,5,/,14
COCCCNC(=S)N/N=C/c1ccccc1O,i,-70,14,14,6,-1,/,-10
COc1cc(NC(=O)Cn2ncc(Cl)c(Cl)c2=O)c(C)cc1[N+](=O)[O-],i,-38,20,-2,-22,-29,/,/
CC1CCN(c2cc(N)c(Cl)cc2[N+](=O)[O-])CC1,i,-166,0,-2,-1,-2,-10,-9
COCCN(C(=O)CCC(=O)Nc1ccccn1)C(C(=O)NCCC(C)C)c1ccc(C)cc1 (stereo unspecified),i,10,-11,-2,-1,5,-2,-7
CCC1Sc2ccccc2N(CC(=O)NCc2ccc3c(c2)OCO3)C1=O (stereo unspecified),i,/,8,-5,-8,-2,-12,-13
O=C(OCC(=O)N1CCN(S(=O)(=O)c2ccc(Cl)cc2)CC1)c1ccc([N+](=O)[O-])o1,i,29,-8,-2,0,1,/,-6
CCCC(=O)Nc1nnc(-c2ccco2)s1,i,/,0,24,0,4,-24,-7
O=C(Cc1ccc([N+](=O)[O-])cc1)NCC1CCCO1 (stereo unspecified),i,-10,-1,-2,-3,-3,5,1
COC(=O)[C@@H](Cc1ccc(O)cc1)NC(=O)[C@H]1CCC(=O)N1C(=O)OCc1ccccc1,i,/,-14,2,5,1,-15,-9
CSc1nc(NS(=O)(=O)c2cc(C)c(Cl)cc2Cl)nn1C,i,-7,-2,-9,3,8,-26,0
Cc1ccc2c(C)c(C(=O)N3CCN(c4ncccn4)CC3)oc2c1C,i,/,2,-3,0,4,-3,/
O=C(CCn1nnc2ccccc21)NNC(=O)C1CCCCC1,i,1,-6,4,-1,-1,/,-6
Cc1ccc[n+](CC(=O)N2CCCCC2)c1C,i,-4,2,-1,2,4,-3,-20
CCN(CC(=O)NC1CCS(=O)(=O)C1)C(=O)c1ccc(S(=O)(=O)N(CC)CC)cc1 (stereo unspecified),/,6,/,/,2,7,-8,-16
Cc1cc(Sc2nc(NC(C)C)nc(NC(C)C)n2)nc(Cl)n1,i,5,0,3,6,-3,2,3
COc1cccc(CC(NC(C)=O)C(=O)NC2CCN(C(=O)C3CC3)CC2)c1OC (stereo unspecified),i,-7,6,2,9,5,/,-10
O=C(COc1ccc(Cl)cc1)Nc1cccc(S(=O)(=O)NCc2ccco2)c1,/,-1,/,/,2,-3,-2,-3
O=C(CN1CCCCCC1)Nc1nc2ccccc2s1,/,-14,/,/,-5,-3,-2,/
O=C(Sc1ccccc1)c1cccc(Cn2cc(C(F)(F)F)ccc2=O)c1,i,10,5,2,-2,-4,9,7
COc1ccc(Cl)cc1S(=O)(=O)N1CCC(C(=O)NC2CC2)CC1,i,11,1,-6,0,0,-14,-31
O=C(COc1cc(F)ccc1[N+](=O)[O-])NCC1CCCO1 (stereo unspecified),/,2,/,/,-1,1,-13,-4
NC(=O)Cc1ccc2sc(-c3ccccc3)nc2c1,/,-150,2,-14,-2,-1,/,/
O=C(Nc1cc(C(F)(F)F)ccc1-n1cncn1)c1cn2ccccc2n1,/,/,/,/,2,-1,-16,-4
CCOC(=O)c1c(NC(=O)CSc2nnc(C)s2)sc2c1CCC(CC)C2 (stereo unspecified),/,21,2,-3,-2,-6,-13,39
# Next part:
SMILES,Rce1 inh,Env fusion inh,PABP FP inh,eIF4H inh,MT1-MMP act inh,MT1-MMP act inh RFP,UUG fidelity,CSC inhib
Cc1ccc(CNC(=O)N2CCN(c3ccc(C)cc3)CC2)cc1,i,?,-2,12,7,-3,1,0
Cc1ccc(/C(O)=C2\C(=O)C(=O)N(CC(C)O)C2c2ccccn2)cc1 (stereo unspecified),i,0,12,-2,-2,0,-12,-12
C=CCOc1ccc(-c2nc3c(c(=O)[nH]c(=O)n3CCC)n2CCCC)cc1,i,5,-2,-12,1,2,-23,5
O=C(Nc1ccc(Cl)cc1)c1ccc(-c2ccccn2)s1,i,-93,-10,-2,2,-3,3,1
Cn1cc(C(=O)N/N=C/c2cccc([N+](=O)[O-])c2)c2ccccc21,i,1,-2,1,1,2,-11,4
CCCOc1ccc(/C(O)=C2/C(=O)C(=O)N(CCCn3ccnc3)C2c2ccc(C)o2)cc1 (stereo unspecified),i,8,0,-3,-1,3,/,-7
CC1(C(=O)NS(=O)(=O)c2cccs2)CCN1C(=O)CC1CCCCC1 (stereo unspecified),/,-8,/,/,-4,3,-13,/
COc1cnc(-c2ccccn2)nc1Oc1ccccc1,i,-5,-3,11,1,1,-29,-1
Clc1ccc(C2NCCc3sccc32)cc1 (stereo unspecified),i,4,-8,-20,-4,0,/,-9
CCN(CC)S(=O)(=O)c1ccc(OC)c(NC(=O)COc2ccc3c(C)cc(=O)oc3c2)c1,i,/,6,-2,3,4,1,-7
COc1ccc(S(=O)(=O)N2CCN(C(=O)CCCN3C(=O)NC4(CCCC4)C3=O)CC2)cc1,/,1,/,/,4,5,-13,/
COc1ccc(NC(=O)C#Cc2ccccc2)cc1OC,i,30,3,4,9,2,7,19
COc1cc(/C=C/C(=O)NCCn2c(C)cc3ccccc32)cc(OC)c1OC,i,16,37,4,8,-3,-2,-10
O=C(Nc1ccccc1)c1nc2ccccc2s1,i,-82,1,-4,-2,-4,-33,22
CCc1nnc(NC(=O)Cc2sc(C)nc2-c2ccc(C)cc2)s1,i,-3,?,-6,-6,-3,-12,-35
COc1ccc(NS(=O)(=O)c2ccc(N3CCOCC3)c(NC(=O)c3ccccc3Br)c2)cc1,i,-87,4,-5,1,-5,-15,4

# A section from the list above:
SMILES,Rce1 inh,Env fusion inh,PABP FP inh,eIF4H inh,MT1-MMP act inh,MT1-MMP act inh RFP,UUG fidelity,CSC inhib
Cc1ccc(/C(O)=C2\C(=O)C(=O)N(CC(C)O)C2c2ccccn2)cc1 (stereo unspecified),i,0,12,-2,-2,0,-12,-12
C=CCOc1ccc(-c2nc3c(c(=O)[nH]c(=O)n3CCC)n2CCCC)cc1,i,5,-2,-12,1,2,-23,5
O=C(Nc1ccc(Cl)cc1)c1ccc(-c2ccccn2)s1,i,-93,-10,-2,2,-3,3,1
Cn1cc(C(=O)N/N=C/c2cccc([N+](=O)[O-])c2)c2ccccc21,i,1,-2,1,1,2,-11,4
CCCOc1ccc(/C(O)=C2/C(=O)C(=O)N(CCCn3ccnc3)C2c2ccc(C)o2)cc1 (stereo unspecified),i,8,0,-3,-1,3,/,-7
CC1(C(=O)NS(=O)(=O)c2cccs2)CCN1C(=O)CC1CCCCC1 (stereo unspecified),/,-8,/,/,-4,3,-13,/
COc1cnc(-c2ccccn2)nc1Oc1ccccc1,i,-5,-3,11,1,1,-29,-1
Clc1ccc(C2NCCc3sccc32)cc1 (stereo unspecified),i,4,-8,-20,-4,0,/,-9
CCN(CC)S(=O)(=O)c1ccc(OC)c(NC(=O)COc2ccc3c(C)cc(=O)oc3c2)c1,i,/,6,-2,3,4,1,-7
COc1ccc(S(=O)(=O)N2CCN(C(=O)CCCN3C(=O)NC4(CCCC4)C3=O)CC2)cc1,/,1,/,/,4,5,-13,/
COc1ccc(NC(=O)C#Cc2ccccc2)cc1OC,i,30,3,4,9,2,7,19
COc1cc(/C=C/C(=O)NCCn2c(C)cc3ccccc32)cc(OC)c1OC,i,16,37,4,8,-3,-2,-10
O=C(Nc1ccccc1)c1nc2ccccc2s1,i,-82,1,-4,-2,-4,-33,22
CCc1nnc(NC(=O)Cc2sc(C)nc2-c2ccc(C)cc2)s1,i,-3,?,-6,-6,-3,-12,-35
COc1ccc(NS(=O)(=O)c2ccc(N3CCOCC3)c(NC(=O)c3ccccc3Br)c2)cc1,i,-87,4,-5,1,-5,-15,4

# Bioassay records as filed in PubChem BioAssay.
